Lassa entry inh: inhibitors of Lassa virus binding or cell entry; Lassa virus pseudotype entry inhibition, cell reporter; control for the full effect not named in the record; Potency, µM (highest dose often 37.9 µM), without a hit: top-dose activity change, negative = inhibition, hits mostly inhibitors; hit rate 1.2% among 300,000; active means well fitted inhibition curve with a large enough effect; inconclusive means small, poorly fitted or top-dose-only effect, or effect the other way; inactive means flat fitted curve, though single readings scatter; tested in HEK293 cells; note: % is set by controls: 0 for no effect and ±100 for the full control effect; nearly all actives have a fitted effect of over 50% in size; luciferase read-out
Cruzain inh noDet: inhibitors of Trypanosoma cruzi cruzain without detergent | P25779 | purified cruzain, Z-FR-AMC fluorescence, no detergent | Potency, µM, inactives show max response, negative = inhibition, actives largely listed as inhibitors | hit rate 2.3% among 200,000;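 note: plate controls were enzyme without inhibitor for no effect and buffer without enzyme for full effect; nearly all actives have a fitted effect of over 40% in size; top concentration of the series not given in the record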
Target sequence (P25779 123-467 limits assumed): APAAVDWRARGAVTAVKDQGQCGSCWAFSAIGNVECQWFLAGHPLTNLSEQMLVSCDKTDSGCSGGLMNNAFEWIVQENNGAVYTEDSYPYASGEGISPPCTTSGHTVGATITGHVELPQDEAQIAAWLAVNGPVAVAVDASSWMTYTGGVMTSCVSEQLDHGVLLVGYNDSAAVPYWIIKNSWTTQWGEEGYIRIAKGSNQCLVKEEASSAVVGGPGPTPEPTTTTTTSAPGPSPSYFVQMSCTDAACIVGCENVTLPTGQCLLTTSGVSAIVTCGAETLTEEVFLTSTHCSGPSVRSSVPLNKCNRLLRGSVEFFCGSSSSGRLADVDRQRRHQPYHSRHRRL
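Detergent-free condition (0.00005% Triton X-100) in acetate buffer pH 5.5 with DTT. 1.5 nM enzyme and compound were pre-mixed 15 min, then 2 uM Z-FR-AMC substrate added; reaction progress from fluorescence change between first and third reads (60 s).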
RE007 growth inh: less growth of the S. pombe RE007 Vpr strain; hit rate 0.21% among 360,000; Potency, µM (highest dose often 92.2 µM), for inactives: at the highest dose activity change, negative = less growth; S. pombe RE007 Vpr strain, BacTiter-Glo ATP luminescence, 24 h; control for the full effect not named in the record; active = well fitted falling curve with a large enough effect; inconclusive = small, poorly fitted or top-dose-only effect; inactive = no such curve, though single readings can be large or run the other way;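 note: % is set by controls: 0 for no effect and ±100 for the full control effect; nearly all actives have a fitted effect of over 50% in size; the assay follows cell death caused by Vpr and the record does not say whether a fall means rescue or toxicity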
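Fission yeast strain RE007, carrying one chromosomally integrated HIV-1 vpr copy, was seeded at OD 0.01 in PMG+AL medium with 23 nL pinned compound. After 24 h at 30 °C and 99% humidity, viability was read by BacTiter-Glo luminescence.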
StopGo reporter: lowers the luciferase signal of an FMDV 2A StopGo reporter. human cells with a luciferase reporter of 2A StopGo recoding; control for the full effect not named in the record. Potency, µM (titrated, usually from 57.9 µM), for the others: at the highest dose signal change, negative = less light. hit rate 1.2% among 410,000; active = well fitted falling curve with a large enough effect; inconclusive = small, poorly fitted or top-dose-only effect; inactive = no such curve, though single readings can be large or run the other way; tested in HEK293T cells; note: % is set by controls: 0 for no effect and ±100 for the full control effect; nearly all actives have a fitted effect of over 45% in size; luciferase light after 4 h
Cruzain inh Det: cruzain (T. cruzi) inhibition with detergent; P25779; purified cruzain, Z-FR-AMC fluorescence, 0.01% Triton; hit rate 0.43% among 200,000; Potency, µM, inactives show max response, negative = inhibition, actives largely listed as inhibitors;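 note: plate controls were neutral wells for no effect and buffer without enzyme for full effect; nearly all actives have a fitted effect of over 40% in size; top concentration of the series not given in the record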
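Detergent-containing run (0.01% Triton X-100) in acetate buffer pH 5.5 with 5 mM DTT: enzyme at 1.5 nM final, 15 min compound preincubation at room temperature, then 2 uM Z-FR-AMC substrate. Activity taken as 60 s fluorescence increase at 360/450 nm.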
SARS PLpro yeast: inhibitors of SARS-CoV papain-like protease in yeast; S. cerevisiae expressing SARS-CoV PLpro, growth rescue; control for the full effect not named in the record; Potency, µM (titrated, usually from 32.9 µM), inactives show top-dose activity, positive = growth rescue; hit rate 0.19% among 330,000; active means well fitted rising curve with a large enough effect; inconclusive means small, poorly fitted or top-dose-only effect; inactive means no such curve, though single readings can be large or run the other way; note: 0% is about no effect; nearly all actives have a fitted effect of over 55% in size; growth read by luminescence after 48 h
MARV entry inh: blocks Marburg virus binding to or entry into cells; Marburg virus pseudotyped entry inhibition, cell reporter; control for the full effect not named in the record; about a third of the inactives were read at about 46 µM; Potency, µM (highest dose often 37.8 µM), for inactives: at the top dose activity change, negative = inhibition, actives largely listed as inhibitors; hit rate 1.8% among 300,000; active = well fitted inhibition curve with a large enough effect; inconclusive = small, poorly fitted or top-dose-only effect, or effect the other way; inactive = flat fitted curve, though single readings scatter; tested in HEK293 cells; about a fifth of its hits are not listed in these tables; note: % is set by controls: 0 for no effect and ±100 for the full control effect; luciferase read-out
NS1 inh: influenza NS1 inhibition. S. cerevisiae slowed by influenza A NS1, growth recovery by OD600. Potency, µM (doses to about 46.1 µM), for the others: at the highest dose activity, positive = more growth. hit rate 0.4% among 270,000. AID 2326; active means well fitted rising curve with a large enough effect; inconclusive means small, poorly fitted or top-dose-only effect; inactive means no such curve, though single readings can be large or run the other way; note: nearly all actives have a fitted effect of over 50% in size
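Compounds were scored for reversing the slow growth caused by influenza A NS1 in S. cerevisiae, measured by optical density at 600 nm. Assay medium contained 2% galactose at pH 6.0; NS1-free yeast of the same strain were the positive control.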
Numbers without * were called inactive; u = inconclusive; x = not tested or not shown; [ ] = another dose, or the depositor's remark. Unless noted, calls come from the whole dose curve; as a rule, active = well fitted curve in the direction sought with a large enough effect; inconclusive = small, poorly fitted or top-dose-only effect, or another doubt; inactive = no such curve, though single readings can be large; an effect the other way counts as inactive or inconclusive. Potency is the fitted concentration of half-maximal effect.

No. | compound | Lassa entry inh | Cruzain inh noDet | RE007 growth inh | StopGo reporter | Cruzain inh Det | SARS PLpro yeast | MARV entry inh | NS1 inh
1 | CCCn1nc(NC(=O)c2cccs2)c2cc3ccccc3nc21 | u | 0% | -23% | 7% | -6.1% | -7% | u | -62%
2 | COc1cc(CNC2CCCC2)cc(Cl)c1OCc1ccccc1Cl | u | 0% | 2% | u | -2.5% | -11% | 10µM* | -20%
3 | COC(=O)c1ccc(C(=O)OC)c(NC(=S)N2CCCC(CO)C2)c1 (centres undefined) | -2%[46.1 µM] | x | -14% | 0% | x | 1% | u | x
4 | Cc1noc(C)c1C(=O)N1CCN(S(=O)(=O)c2cccc(Cl)c2Cl)CC1 | 1% | x | 26% | -8% | x | 0% | 1% | -1%
5 | Cc1ccc(CN2CCCn3nc(C(=O)NCCN(C)C)cc3C2=O)cc1 | u | -10% | x | -4% | 1.7% | x | x | x
6 | CC(Cc1n[nH]c(=S)o1)c1ccccc1 (centres undefined) | -14% | x | -12% | 9% | x | -1% | 2% | x
7 | Cc1ccc(-c2ccc(/C=N/c3ncn[nH]3)o2)cc1Cl | u | -3% | -5% | -14% | -6.1% | -7% | u | -23%
8 | CCN(CC)CCCNC(=O)c1[nH]c2ccccc2c1Sc1ccc(Cl)cc1 | u | x | 1% | -23% | x | -1% | u | 2%
9 | Cc1ccc(S(=O)(=O)CCC(=O)Nc2ccc(Br)cc2C)cc1 | -4%[46.1 µM] | -13% | x | -9% | -1.6% | x | x | x
10 | O=C(NCC1CCN(Cc2cccc(Cl)c2)CC1)Nc1ccccc1Cl | 26%[46.1 µM] | x | 2% | -18% | x | -1% | u | 7%
11 | COc1ccc(/C=N\NC(=O)COc2ccccc2Cl)cc1Cn1nc(C)cc1C | -24% | -29% | -5% | -4% | 1.7% | 4% | -17%[46.1 µM] | -8%
12 | CC1=CC(C)(C)NC(=S)N1c1ccc(C)cc1C | u | x | 3% | 0% | x | 24% | u | x
13 | O=C(c1c(Cl)cccc1Cl)N1CCN(c2ccccn2)CC1 | 2% | 1% | 6% | -24% | -6.5% | 0% | 3% | -1%
14 | Cc1ccc(S(=O)(=O)/N=C/N(C)C)cc1 | 1% | -4% | 1% | -11% | -2.4% | 16% | -1% | 28%
15 | OCC1CCCN(Cc2ccc(-c3ccccc3)cc2)C1 (centres undefined) | 1% | -5% | 16% | 40%[activator] | -0.8% | -9% | -10% | -15%
16 | COc1cc(S(=O)(=O)NC2CCCC2)ccc1-n1cnnn1 | 11%[46.1 µM] | x | 5% | 29% | x | 1% | u | 3%
17 | O=C(N/N=C/c1cccc(Br)c1)C1CC(=O)N(c2ccccc2)C1 (centres undefined) | 9% | x | -3% | -6% | x | -1% | 2% | -13%
18 | O=C(O)CSCC(=O)NCc1csc2ccc(Cl)cc12 | -15% | x | -20% | 4% | x | 1% | -16% | 1%
19 | O=C(CN1C(=O)NC2(CCCc3ccccc32)C1=O)N1CCN(C(=O)c2ccco2)CC1 (centres undefined) | 7% | -2% | -3% | u | -0.7% | 4% | 5% | -8%
20 | CN(c1ccccc1)S(=O)(=O)c1ccc(Cl)c(C(=O)Nc2ccc(N3CCOCC3)cc2)c1 | u | x | 15% | -15% | x | -1% | 3%[46.1 µM] | x
21 | COc1ccc(-c2[nH]ncc2CNCCc2ncccc2C)cc1F | u | x | -30% | -11% | x | 0% | -24%[46.1 µM] | 5%
22 | CCOC(=O)C1(Cc2ccccc2)CCN(Cc2cccc3c2OCO3)CC1 | -7% | x | -10% | -11% | x | 0% | u | -6%
23 | CCCCc1nnc(NC(=O)CSc2nc(N)cc(=O)[nH]2)s1 | 15%[46.1 µM] | x | -7% | 6% | x | 2% | 0%[46.1 µM] | x
24 | CC1(c2ccc3noc(-c4ccc(Cl)cc4)c3c2)OCCO1 | u | -8% | -10% | -15% | -4.0% | -1% | u | 9%
25 | Cc1cc(=O)oc2cc(NC(=O)c3cccc(S(=O)(=O)N(C)C)c3)ccc12 | -7%[46.1 µM] | x | -6% | 4% | x | 0% | u | -6%
26 | CCOc1ccc(-n2c(SCc3ccccc3)nc3c([nH]c4ccccc43)c2=O)cc1 | -3%[46.1 µM] | -21% | x | -11% | 0.6% | x | x | x
27 | Cc1cc2ccc(C)c(C)c2nc1SCC#N | -14% | 3% | -2% | -15% | -2.5% | -9% | 3% | -1%
28 | COc1ccc([C@H]2[C@H](C(=O)OC(C)(C)C)N3N=Cc4ccccc4C3C23C(=O)c2ccccc2C3=O)cc1OC (some centres undefined) | u | u | 4% | 54%[activator] | -8.6% | 0% | u | 7%
29 | Cc1ccc2nc(-c3ccncc3)c(Nc3ccccc3C)n2c1 | -9%[46.1 µM] | 8% | x | -24% | -3.7% | x | -10%[46.1 µM] | x
30 | COc1ccc(Oc2coc3cc(O)ccc3c2=O)cc1 | x | x | 3% | 20% | x | -4% | x | -21%
31 | O=C(Cc1csc(NC(=O)Nc2cccc(Cl)c2)n1)NC1CCCC1 | -14% | x | 1% | u | x | 5% | 13µM* | x
32 | COc1ccc(Cc2nnc3c4cnn(C)c4ncn23)cc1 | -15% | -4% | 3% | -19% | 4.7% | 2% | 8% | 10%
33 | O=C(c1ccco1)N1CCN(Cc2cc(=O)c(OCc3ccccc3)co2)CC1 | -5% | x | 9% | -6% | x | -2% | 4% | x
34 | Cc1ccc(S(=O)(=O)Nc2ccccc2C(=O)NCC2CCCO2)cc1 (centres undefined) | 12% | x | 1% | 0% | x | 1% | 4% | -6%
35 | CNc1nc(C(=O)O)nc(N2CCOCC2)n1 | -2% | 10% | -3% | 2% | -2.0% | 3% | 0% | 7%
36 | CC(=O)c1ccc(OCc2cc(=O)n3ccsc3n2)cc1 | -8% | u | -7% | 9% | -14% | -10% | u | 26%
37 | Cc1ccc(S(=O)(=O)N2CCN(CC(=O)Nc3ccc4c(c3)CCC4)CC2)cc1C | u | 2% | 4% | u | -5.6% | -16% | u | 1%
38 | COc1ccccc1-c1cc(C(=O)NCc2ccc(Cl)cc2)no1 | 6% | 3% | -7% | 2% | -7.0% | 4% | -2% | -15%
39 | Cc1ccc(NC(=O)/C=C/c2cccc(C(F)(F)F)c2)cc1 | u | 4% | -4% | -15% | -11% | 0% | 10% | -3%
40 | CCc1cc2c(CN(C)Cc3ccccc3F)cc(=O)oc2cc1O | 12%[46.1 µM] | x | 11% | -5% | x | -8% | u | -16%
41 | CCC(NC(=O)OC(C)(C)C)C(=O)Oc1ccc2c3c(c(=O)oc2c1)CCC3 (centres undefined) | 7% | u | 8% | 8% | -1.0% | -3% | 21% | -84%
42 | Cc1ccc(S(=O)(=O)N[C@@H](C)C(=O)N2CCC(C(=O)N[C@@H](Cc3ccccc3)C(=O)O)CC2)cc1 | x | x | -2% | -10% | x | 2% | x | -11%
43 | O=C(C[n+]1cc(Br)cc(Br)c1)c1ccc(-c2ccccc2)cc1 | x | x | -11% | -21% | x | 16% | x | 0%
44 | Cc1nn(C)c2c1c(C(F)(F)F)cc(=O)n2C(C)C(=O)NCc1ccccc1 (centres undefined) | 16%[46.1 µM] | 10% | x | -27% | -0.5% | x | x | x
45 | COc1cc(NC(=O)COC(=O)CNC(=O)c2ccc(C)cc2)c(C)cc1[N+](=O)[O-] | x | 13µM* | 2% | 2% | 13µM* | -12% | x | 7%
46 | NC(=O)C1CCN(C(=O)CC2(CC(=O)O)CCCC2)CC1 | -9% | x | 2% | -22% | x | -1% | 8%[46.1 µM] | -13%
47 | CC(=O)NNc1cc(C)nc(NS(=O)(=O)c2ccc(C)cc2)n1 | u | x | 7% | -3% | x | 6% | -1%[46.1 µM] | 8%
48 | Cc1ccc(S(=O)(=O)N2CCN(CC(O)COc3ccccc3)CC2)cc1 (centres undefined) | x | x | 29% | -24% | x | 1% | -16%[46.1 µM] | 6%
49 | O=C(OCCCN=C1NS(=O)(=O)c2ccccc21)c1ccc(F)cc1 | 8% | -6% | 5% | 28% | -1.6% | -2% | 6% | 2%
50 | Cc1ncc([N+](=O)[O-])n1CC(=O)NCc1ccccc1 | -26%[14.3 µM] | -1% | 9% | -12% | 7.0% | -13% | 18% | -12%
51 | CN(CC(=O)N1CCc2ccccc2C1)S(=O)(=O)c1ccc2c(c1)c(=O)n(C)c(=O)n2C | x | 27% | -16% | -15% | 0.1% | 4% | 7% | -9%
52 | COc1ccc(OC)c(N2C(=O)C(Cl)=C(N3CCOCC3)C2=O)c1 | 19% | 0% | -9% | -7% | -2.1% | -10% | 15% | 5%

Some of the entries so far, screen by screen.
44	Cc1nn(C)c2c1c(C(F)(F)F)cc(=O)n2C(C)C(=O)NCc1ccccc1 (centres undefined)
45	COc1cc(NC(=O)COC(=O)CNC(=O)c2ccc(C)cc2)c(C)cc1[N+](=O)[O-]
46	NC(=O)C1CCN(C(=O)CC2(CC(=O)O)CCCC2)CC1
47	CC(=O)NNc1cc(C)nc(NS(=O)(=O)c2ccc(C)cc2)n1
48	Cc1ccc(S(=O)(=O)N2CCN(CC(O)COc3ccccc3)CC2)cc1 (centres undefined)
49	O=C(OCCCN=C1NS(=O)(=O)c2ccccc21)c1ccc(F)cc1
50	Cc1ncc([N+](=O)[O-])n1CC(=O)NCc1ccccc1
51	CN(CC(=O)N1CCc2ccccc2C1)S(=O)(=O)c1ccc2c(c1)c(=O)n(C)c(=O)n2C
52	COc1ccc(OC)c(N2C(=O)C(Cl)=C(N3CCOCC3)C2=O)c1

assay / entry	44	45	46	47	48	49	50	51	52
Lassa entry inh	16%[46.1 µM]	x	-9%	u	x	8%	-26%[14.3 µM]	x	19%
Cruzain inh noDet	10%	13µM*	x	x	x	-6%	-1%	27%	0%
RE007 growth inh	x	2%	2%	7%	29%	5%	9%	-16%	-9%
StopGo reporter	-27%	2%	-22%	-3%	-24%	28%	-12%	-15%	-7%
Cruzain inh Det	-0.5%	13µM*	x	x	x	-1.6%	7.0%	0.1%	-2.1%
SARS PLpro yeast	x	-12%	-1%	6%	1%	-2%	-13%	4%	-10%
MARV entry inh	x	x	8%[46.1 µM]	-1%[46.1 µM]	-16%[46.1 µM]	6%	18%	7%	15%
NS1 inh	x	7%	-13%	8%	6%	2%	-12%	-9%	5%
